# Ecoli rRNA inh – inhibits bacterial ribosomal RNA function over humanized ribosomes; AID 720706; GFP signal change (wild-type ribosome), % (no concentration beside the values); E. coli WT GFP vs humanized-ribosome RFP mutants, fluorescence, 24 h; active compounds read low; DMSO median 0, no signal -100; actives 1.6% (n = 350,000);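 active = significant combined selectivity score with lowered wild-type GFP, culture density cut under 30%, mutant RFP and density less affected; inactive = any of these conditions unmet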; also: one replicate is shown; some compounds called inactive have numbers as strong as hits
# MLL AF4-AF9 inh – blocks AF4 peptide binding to human AF9; AlphaScreen, biotin-AF4 peptide binding to FLAG-AF9; inhibition, % at 10 µM; actives 0.47% (n = 350,000);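 active = every replicate reaching a set inhibition limit, whatever the replicate mean, cut at about 25% in these data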;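 also: 0% = plate neutral control median and 100% = total signal loss; the record names both 10 and 1 µM as test concentration; the first replicate is given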
# Target sequence (P42568 whole entry, looked up): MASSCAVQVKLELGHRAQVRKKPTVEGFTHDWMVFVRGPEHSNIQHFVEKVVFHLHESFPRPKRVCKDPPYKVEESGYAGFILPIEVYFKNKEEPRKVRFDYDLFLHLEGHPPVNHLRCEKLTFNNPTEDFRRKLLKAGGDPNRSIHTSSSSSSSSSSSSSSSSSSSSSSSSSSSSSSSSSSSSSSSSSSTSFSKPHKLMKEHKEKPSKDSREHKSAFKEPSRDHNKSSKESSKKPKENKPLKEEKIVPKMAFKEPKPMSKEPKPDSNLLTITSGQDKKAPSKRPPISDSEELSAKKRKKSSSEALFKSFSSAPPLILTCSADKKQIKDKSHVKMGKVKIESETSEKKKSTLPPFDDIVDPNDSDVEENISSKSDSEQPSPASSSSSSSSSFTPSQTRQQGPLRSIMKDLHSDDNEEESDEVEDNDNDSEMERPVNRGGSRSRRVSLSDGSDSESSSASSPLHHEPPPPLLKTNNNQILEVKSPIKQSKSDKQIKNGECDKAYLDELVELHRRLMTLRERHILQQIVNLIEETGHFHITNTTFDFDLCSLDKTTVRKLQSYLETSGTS
# Ecoli rRNA inh OD600 – second read-out of Ecoli rRNA inh, no call of its own (marks repeat the call); OD600 change, %; measured here: OD600 growth;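 optical density of the mix in the first replicate; 0 = DMSO median and -100 = no signal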
# Ecoli rRNA inh RFP – further read-out of Ecoli rRNA inh, marked with its call; RFP signal change, %; measured here: RFP humanized mutant strains;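 first replicate; 0 = DMSO median and -100 = no signal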
# An asterisk follows results filed as active.
SMILES,Ecoli rRNA inh,Ecoli rRNA inh OD600,Ecoli rRNA inh RFP,MLL AF4-AF9 inh
COc1ccc(S(=O)(=O)N(C)C[C@H]2Oc3ccc(NS(=O)(=O)c4ccc(C)cc4)cc3C(=O)N([C@H](C)CO)C[C@@H]2C)cc1,-4.4,2.6,0.2,-4.9
CCCN1[C@@H]2Cn3c(ccc(C4=CCCC4)c3=O)[C@H]1[C@@H](C(=O)NCc1ccccn1)[C@@H]2CO,-0.6,6.0,1.4,-22.4
COCC(=O)N(C)C[C@@H]1Oc2ncc(C#Cc3ccncc3)cc2C(=O)N([C@H](C)CO)C[C@@H]1C,4.8,20.8,2.5,-8.1
C[C@H](CO)N1C[C@H](C)[C@@H](CN(C)Cc2ccncc2)OCCCC[C@H](C)Oc2ccc(NC(=O)NC3CCCCC3)cc2C1=O,-3.7,-10.5,2.8,-2.0
COc1ccc(-c2cc(C(F)(F)F)nc(SCCC(=O)N3CCN(C)CC3)n2)cc1,-0.3,5.8,9.5,3.8
OC[C@@H]1[C@H](c2ccc(-c3ccccc3F)cc2)[C@H]2CN(Cc3cccnc3)CCCCN12,0.3,2.1,0.9,4.8
O=C(C[C@H]1C[C@H]2c3cc(NC(=O)C4CCC4)ccc3O[C@H]2[C@H](CO)O1)NCc1ccccc1F,1.9,-7.6,0.3,-4.0
CC(C)c1ccc(S(=O)(=O)N2CCC(C(=O)N3CCN(c4cccc(Cl)c4)CC3)CC2)cc1,4.8,-4.6,-1.4,-16.7
C/C=C/c1cccc(-c2nc(C(=O)NCc3ccncc3)cc3c2[C@H](CCO)N([S@@](=O)C(C)(C)C)C3)c1,-13.2,-6.3,2.9,-4.0
N#C[C@@H]1[C@@H](c2ccc(C#CC3CCCCC3)cc2)[C@H](CO)N1C(=O)c1cccc(F)c1,3.1,9.0,0.3,-25.5
CO[C@H]1CN(C)C(=O)c2ccc(NC(=O)c3ccc(F)cc3)cc2OC[C@H](C)N(C)C[C@H]1C,-1.3,2.9,0.9,-0.1
CCc1nc2c(OCc3ccc(OC)cc3)cccn2c1N(C)C(=O)c1ccncc1,9.3,16.9,1.1,-1.4
COc1ccccc1S(=O)(=O)N1C[C@@H](O)COC[C@@H]2O[C@@H](CC(=O)O)CC[C@H]21,7.3,2.0,-1.1,-15.0
Cc1noc(C)c1S(=O)(=O)Nc1ccc2c(c1)CC(=O)N([C@H](C)CO)C[C@H](C)[C@@H](CN(C)C(=O)Nc1ccc(C(F)(F)F)cc1)O2,1.6,-3.6,0.5,0.1
C[C@@H]1CN([C@@H](C)CO)C(=O)c2cccc(NS(=O)(=O)c3cn(C)cn3)c2O[C@@H]1CN(C)Cc1ccc2c(c1)OCO2,4.0,10.8,0.6,0.2
CC(C)NC(=O)NCC[C@H]1CC[C@@H](NS(=O)(=O)c2ccc(Oc3ccccc3)cc2)[C@@H](CO)O1,-0.3,-25.1,-2.0,6.1
CC(=O)N1[C@@H](CO)[C@@H]2c3ccccc3N(C(=O)c3ccc(F)cc3)C[C@@H]21,5.5,6.8,-2.4,-0.4
CO[C@H]1CN(C)C(=O)c2cc(NC(=O)C3CC3)ccc2OC[C@H](C)N(C(=O)c2ccccc2F)C[C@@H]1C,1.3,-3.1,-1.0,-0.9
CC1(C(=O)Nc2cccc3cccnc23)CCN1C(=O)CC1CC1 (configuration not stated),4.1,-3.6,1.0,0.8
C[C@@H]1CN([C@@H](C)CO)S(=O)(=O)c2ccc(C#Cc3ccccn3)cc2O[C@H]1CN(C)C,-1.0,4.5,2.3,0.1
C[C@@H]1CN([C@H](C)CO)C(=O)c2cccc(NC(=O)Nc3ccccc3)c2O[C@@H]1CN(C)C(=O)Nc1ccc(C(F)(F)F)cc1,-1.5,1.1,-1.1,-1.3
C[C@H](CO)N1C[C@H](C)[C@@H](CN(C)Cc2ccc(-c3ccccc3)cc2)Oc2ccc(NS(=O)(=O)c3cn(C)cn3)cc2C1=O,-2.8,-2.5,7.8,-5.0
CC(C)NC(=O)N1C[C@@H]2[C@H](c3ccccc31)[C@H](CO)N2C(=O)c1ccc(F)cc1,2.9,2.6,-0.6,0.0
CCC(=O)Nc1ccc2c(c1)C(=O)N(C)[C@H]1CC[C@H](CC(=O)N[C@H](C)c3ccccc3)O[C@@H]1CO2,0.0,5.5,1.0,-2.3
Cc1ccc(OCCN2CCC2(C)C(=O)NCc2cccc3ccccc23)cc1 (configuration not stated),-49.8,-72.2,-7.5,-2.5
O=C1CN(S(=O)(=O)Cc2ccccc2)C[C@H]2[C@H](c3ccc(C#Cc4cccnc4)cc3)[C@H](CO)N12,-1.4,-5.3,2.4,-0.1
C[C@H](NC(=O)[C@@H]1[C@@H](CO)[C@@H]2Cn3c(cccc3=O)[C@H]1N2C(=O)C1CCCC1)c1ccccc1,3.3,11.3,-2.9,-2.1
Cc1ccc(S(=O)(=O)Nc2ccc3c(c2)C(=O)N([C@@H](C)CO)C[C@@H](C)[C@@H](CN(C)C(=O)Nc2ccc(C(F)(F)F)cc2)OCCCC[C@H](C)O3)cc1,3.6,4.7,-2.1,-5.5
C[C@@H]1CN([C@H](C)CO)C(=O)Cc2cc(NC(=O)Nc3ccc(C(F)(F)F)cc3)ccc2O[C@@H]1CN(C)CC1CCCCC1,0.1,-5.9,6.7,1.6
c1ccc(CNc2nc(NCc3ccccc3)c3sccc3n2)cc1,-61.1,-77.3,-18.8,3.0
CCN1[C@H](C(=O)NC2Cc3ccccc3C2)[C@@H](CO)[C@@H]2Cn3c(ccc(C4=CCCCC4)c3=O)[C@@H]21,-9.1,-14.8,12.5,5.0
COc1ccc(NC(=O)N(C)C[C@H]2Oc3ccc(NS(=O)(=O)c4ccc(OC)cc4)cc3CC(=O)N([C@@H](C)CO)C[C@H]2C)cc1,2.3,-4.5,1.5,0.4
Cc1noc(C)c1S(=O)(=O)N(C)C[C@@H]1OCCCC[C@H](C)Oc2ccc(NC(=O)c3ccccc3)cc2C(=O)N([C@@H](C)CO)C[C@H]1C,-3.7,-2.1,4.7,2.7
O=C(C[C@H]1C=C[C@H](NC(=O)C2CCC2)[C@H](CO)O1)NC1CCC1,0.6,0.0,-0.5,-2.9
O=C(C[C@H]1CC[C@@H](NC(=O)c2ccccn2)[C@H](CO)O1)NCc1cc(F)cc(F)c1,1.2,1.6,-1.3,0.9
CCC(=O)N1CC(=O)N2[C@H](CO)[C@H](c3ccc(-c4cccc(C(=O)N(C)C)c4)cc3)[C@@H]2C1,8.8,9.0,-6.7,-3.8

# Single values from the entries so far:
# `CCC(=O)N1CC(=O)N2[C@H](CO)[C@H](c3ccc(-c4cccc(C(=O)N(C)C)c4)cc3)[C@@H]2C1` @ MLL AF4-AF9 inh = -3.8
# `Cc1ccc(OCCN2CCC2(C)C(=O)NCc2cccc3ccccc23)cc1` (configuration not stated) @ Ecoli rRNA inh = -49.8
# `O=C1CN(S(=O)(=O)Cc2ccccc2)C[C@H]2[C@H](c3ccc(C#Cc4cccnc4)cc3)[C@H](CO)N12` @ MLL AF4-AF9 inh = -0.1

# Next part
SMILES,Ecoli rRNA inh,Ecoli rRNA inh OD600,Ecoli rRNA inh RFP,MLL AF4-AF9 inh
N#C[C@H]1[C@H](c2ccccc2-c2cccc(F)c2)[C@@H](CO)N1C(=O)C1CCOCC1,1.8,2.1,-1.7,-2.5
C[C@H](CO)N1C[C@H](C)[C@@H](CN(C)Cc2ccc(Oc3ccccc3)cc2)Oc2ccc(NC(=O)Cc3cn(C)c4ccccc34)cc2C1=O,2.7,3.2,0.5,5.5
CO[C@@H]1CN(C)C(=O)c2cc(NC(=O)C3CCCC3)ccc2OC[C@@H](C)N(C)C[C@H]1C,3.3,4.5,-2.7,-4.8
CC(C)CC#Cc1ccc([C@H]2[C@@H](CO)N3C(=O)CN(C(=O)c4ccccn4)C[C@@H]23)cc1,2.8,-1.0,1.3,0.1
COCC(=O)Nc1ccc2c(c1)C(=O)N(C)C[C@H](OC)[C@@H](C)CN(C(=O)Cc1ccccn1)[C@@H](C)CO2,3.5,3.8,0.3,-1.6
CO[C@H]1CN(C)C(=O)c2ccc(NC(=O)c3ccno3)cc2OC[C@H](C)NC[C@@H]1C,4.2,0.3,0.2,-4.5
C[C@@H]1CN([C@H](C)CO)C(=O)c2cc(NC(=O)Cc3cn(C)c4ccccc34)ccc2O[C@H]1CN(C)S(=O)(=O)c1cn(C)cn1,-1.3,2.2,-1.3,-12.9
CCSc1ccc(-c2cc(NC=O)c3ncc(-c4cc(OC)c(OC)c(OC)c4)n3c2)cc1,-6.0,-8.2,13.9,4.5
O=C(Nc1cc(F)ccc1F)N1CCCCN2[C@H](CO)[C@@H](c3ccc(-c4cccnc4)cc3)[C@H]2C1,0.2,26.8,-1.6,3.2
CCOC1=C2[C@@H](CN(S(=O)(=O)c3ccc(C)cc3)[C@H]2c2cccs2)[C@H]2C(=O)N(c3ccccc3)C(=O)[C@H]2C1,-3.3,1.4,5.2,3.1
COc1ccc(-c2ccc([C@@H]3[C@@H](CO)N4C(=O)CN(C(=O)C5CCC5)C[C@H]34)cc2)cc1,2.0,-4.1,0.2,4.5
O=C(NC1CCCC1)N1CCCCN2[C@H](C1)[C@H](c1ccc(-c3ccccc3)cc1)[C@@H]2CO,-51.5,-57.4,-3.0,-2.2
Cc1ccc(S(=O)(=O)N2C[C@@H](C)[C@]3(C2)[C@H](O)[C@H](OC(=O)NCc2ccco2)C[C@H]2C(=O)N(c4ccccc4)C(=O)[C@H]23)cc1,6.5,3.6,1.9,1.4
C[C@H]1CN([C@@H](C)CO)C(=O)c2ccccc2-c2ccccc2CO[C@@H]1CN(C)S(=O)(=O)c1cccc(C#N)c1,0.7,0.9,-0.5,2.3
CC(C)NC(=O)Nc1ccc2c(c1)CC(=O)N([C@@H](C)CO)C[C@@H](C)[C@H](CN(C)C(=O)Nc1ccc(C(F)(F)F)cc1)O2,5.0,-0.9,-1.5,-0.7
CC(C)c1cn(CC[C@@H]2CC[C@@H](NS(=O)(=O)c3ccccc3)[C@H](CO)O2)nn1,1.9,6.7,-2.2,-1.6
C[C@@H]1CCCCO[C@H](CN(C)C(=O)C2CCCCC2)[C@H](C)CN([C@H](C)CO)C(=O)c2cc(NC(=O)C3CCCCC3)ccc2O1,-6.8,-11.2,-0.6,3.8
CC(C)NC(=O)Nc1ccc2c(c1)C(=O)N([C@H](C)CO)C[C@@H](C)[C@@H](CN(C)Cc1ccc(Cl)c(Cl)c1)O2,-8.8,-18.7,0.7,3.6
C[C@@H]1CCCCO[C@@H](CN(C)Cc2ccncc2)[C@@H](C)CN([C@H](C)CO)C(=O)c2cc(NC(=O)C3CCCCC3)ccc2O1,-0.9,-2.4,-4.0,-2.3
C[C@@H]1CN([C@@H](C)CO)C(=O)c2cc(NC(=O)CCCN(C)C)ccc2O[C@@H](C)CCCCO[C@@H]1CN(C)C(=O)Cc1ccccc1,3.7,8.1,0.1,-1.5
CCOC1=C2CN(S(=O)(=O)c3ccc(C)cc3)[C@@H](c3ccc(CC)cc3)C[C@H]2[C@H]2C(=O)N(c3ccccc3)C(=O)[C@H]2C1,21.9,5.3,1.7,2.2
C[C@@H]1CN([C@H](C)CO)C(=O)c2cc(C3=CCCCC3)cnc2O[C@H]1CN(C)C(=O)c1ccncc1,3.9,-4.1,0.6,-2.7
COc1cccc(S(=O)(=O)N[C@@H]2CC[C@@H](CC(=O)NCc3ccc(F)cc3)O[C@@H]2CO)c1,4.5,0.9,0.3,-1.6
CO[C@@H]1CC[C@H]2CCOc3ccc(C#N)cc3C(=O)N(C)C[C@@H](c3ccccc3)CC(=O)N(C)C[C@H]1O2,-1.6,-7.4,-1.4,0.6
COCCNc1nc(NC(C)C)nc2ccsc12,13.8,24.9,-1.8,1.6
C[C@H]1CN([C@@H](C)CO)C(=O)c2cc(NS(=O)(=O)c3cn(C)cn3)ccc2O[C@H]1CN(C)S(=O)(=O)c1ccc(Cl)cc1,2.1,-1.0,-1.3,-2.5
COc1ccccc1NC(=O)Nc1ccc2c(c1)C(=O)N(C)C[C@@H](OC)[C@H](C)CN(C)[C@H](C)CO2,0.9,-5.4,1.0,0.5
C[C@H]1CN([C@@H](C)CO)C(=O)c2cc(NC(=O)Cn3cnnn3)ccc2O[C@@H]1CN(C)C(=O)Nc1ccccc1,4.5,9.5,-1.3,-3.0
CN(C)CC(=O)Nc1ccc2c(c1)[C@H]1C[C@@H](CC(=O)NCc3cc(F)ccc3F)O[C@H](CO)[C@H]1O2,3.0,4.9,1.5,-1.8
C/C=C/c1ccc([C@H]2[C@H](CO)N(C(=O)CN(C)C)C23CN(C(=O)C2CCOCC2)C3)cc1,4.2,12.5,0.0,0.8
O=C(N[C@H]1C=C[C@H](CC(=O)N2CCCCC2)O[C@@H]1CO)c1ccccn1,2.0,4.0,-0.8,-1.6
CCCC(=O)N1C[C@@H]2[C@H](c3ccccc31)[C@H](CO)N2C(=O)CC1CC1,3.2,3.0,-0.2,-0.4
C[C@@H]1CN([C@@H](C)CO)C(=O)c2cc(NC(=O)Cc3ccccc3)ccc2O[C@@H](C)CCCCO[C@@H]1CN(C)C(=O)Nc1ccc2c(c1)OCO2,1.9,5.8,2.7,-0.9

# One compound at a time, as listed above. Order of screens: Ecoli rRNA inh	Ecoli rRNA inh OD600	Ecoli rRNA inh RFP	MLL AF4-AF9 inh
# CCCC(=O)N1C[C@@H]2[C@H](c3ccccc31)[C@H](CO)N2C(=O)CC1CC1 is listed as 3.2	3.0	-0.2	-0.4
# CN(C)CC(=O)Nc1ccc2c(c1)[C@H]1C[C@@H](CC(=O)NCc3cc(F)ccc3F)O[C@H](CO)[C@H]1O2 is listed as 3.0	4.9	1.5	-1.8

# Source: PubChem BioAssay (Broad Institute)

# This is a subset (hit frequency here may not be typical).
